FGF22 binding = binders of human FGF22 protein, primary screen, FGF22 synaptogenesis inhibitor project, biophysical, thermal shift, single point; Fibroblast growth factor 22 (Homo sapiens), Q9HCT0; recombinant FGF22 thermal shift, SYPRO orange fluorescence; percent of sucrose octasulfate shift, DMSO zero; calls only at 9.99 µM; actives 1.5% (n = 340,000);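 active means melting point raised past a set limit in the mean and every replicate; three in four hits are not shown here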
Target sequence (Q9HCT0 whole entry, looked up): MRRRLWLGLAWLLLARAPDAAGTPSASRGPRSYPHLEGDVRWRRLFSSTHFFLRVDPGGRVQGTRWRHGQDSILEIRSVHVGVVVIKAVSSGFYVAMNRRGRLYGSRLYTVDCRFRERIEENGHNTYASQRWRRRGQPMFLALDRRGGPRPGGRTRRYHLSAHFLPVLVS
Ecoli rRNA inh = reduced GFP signal of wild-type E. coli, primary screen, bacterial rRNA inhibitor project, GFP/RFP fluorescence, OD600, single point; GFP signal change (wild-type ribosome), % (no concentration beside the values); AID 720706, 2013; actives 1.6% (n = 350,000); E. coli WT GFP vs humanized-ribosome RFP mutants, 24 h; stronger effect = lower value; DMSO median 0, no signal -100;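 active means significant combined selectivity score with lowered wild-type GFP, culture density cut under 30%, mutant RFP and density less affected; inactive means any of these conditions unmet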; further: one replicate is shown; some compounds called inactive have numbers as strong as hits
Ecoli rRNA inh OD600 = also measured in Ecoli rRNA inh; calls as there; OD600 change, %; measured here: OD600 growth;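 optical density of the mix in the first replicate; 0 = DMSO median and -100 = no signal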
Ecoli rRNA inh RFP = recorded beside Ecoli rRNA inh, whose call it bears; RFP signal change, %; measured here: RFP humanized mutant strains;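 first replicate; 0 = DMSO median and -100 = no signal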
Numbers without * were called inactive; i = inactive; + = active, no number; & = joins results of further samples. This is a subset, so the mix of outcomes need not match the whole.

mol	FGF22 binding	Ecoli rRNA inh	Ecoli rRNA inh OD600	Ecoli rRNA inh RFP
C[C@@H]1CN([C@H](C)CO)C(=O)c2cc(NC(=O)CCC(F)(F)F)ccc2O[C@H]1CN(C)S(C)(=O)=O	i	1	7	0.4
CN(C)C(=O)N1CCN(C(=O)[C@H]2O[C@@H](n3ccc(N)nc3=O)[C@H](O)[C@@H]2O)CC1	i	13	16	5.4
C[C@@H]1CCCCO[C@@H](CN(C)C(=O)Nc2cccc3ccccc23)[C@@H](C)CN([C@H](C)CO)C(=O)c2cc(NC(=O)Nc3ccccc3)ccc2O1	i	4	5	-0.4
O=C(C1CCOCC1)N1C[C@@H]2[C@H](c3ccccc31)[C@@H](CO)N2Cc1ccccc1	+	1	0	0.5
Cc1ccc(S(=O)(=O)Nc2ccc3c(c2)CC(=O)N([C@@H](C)CO)C[C@H](C)[C@@H](CN(C)S(=O)(=O)c2ccc(F)cc2)O3)cc1	i	-2	-12	-2.1
CCCC#Cc1ccc([C@@H]2[C@@H](CO)N3CCCCN(Cc4cncnc4)C[C@H]23)cc1	i	7	18	3.1
Cc1cc(C(=O)Nc2cccc3c2O[C@H](CN(C)C(=O)NC2CCCCC2)[C@@H](C)CN([C@@H](C)CO)C3=O)n(C)n1	i	-1	5	1.7
O=C(/C=C(\Nc1cc(Cl)c(Cl)c(Cl)c1)c1ccccc1)c1ccccc1	i	-12	-8	-4.8
C[C@H](CO)N1C[C@H](C)[C@H](CN(C)S(=O)(=O)c2ccccc2)Oc2ccc(NS(=O)(=O)c3ccc(F)cc3)cc2C1=O	i	2	17	3.0
CNC(=O)C[C@H]1CC[C@@H]2[C@H](COc3ccc(NC(=O)c4cscn4)cc3C(=O)N2C)O1	i	0	-1	0.7

The list continues.
mol	FGF22 binding	Ecoli rRNA inh	Ecoli rRNA inh OD600	Ecoli rRNA inh RFP
O=C(CN1CCOCC1)N1CC[C@@H]2[C@@H](CO)Nc3ccc(-c4ccccc4F)cc3[C@@H]21	i	4	24	2.0
COc1ccc(NC(=O)N(C)C[C@@H]2Oc3ccc(NC(=O)c4ccncc4)cc3CC(=O)N([C@@H](C)CO)C[C@H]2C)cc1	i	5	8	-0.8
C[C@@H]1CCCCO[C@@H](CN(C)Cc2ccc3c(c2)OCO3)[C@@H](C)CN([C@@H](C)CO)C(=O)c2cc(NS(=O)(=O)c3cccs3)ccc2O1	i	1	9	-0.8
CCC(c1nc2ccccc2[nH]1)n1c(C)nc2ccccc21 (stereo unspecified)	i	6	7	1.4
CC(C)C(=O)Nc1ccc2c(c1)C(=O)N(C)[C@@H]1CC[C@H](CC(=O)N[C@@H](C)c3ccccc3)O[C@H]1CO2	i	1	4	2.5
CN1c2ccc(-c3ccc(C#N)cc3)cc2[C@@H]2[C@@H](CCN2C(=O)CN2CCOCC2)[C@H]1CO	i	-3	0	-1.8
CCCNC(=O)N(C)C[C@H]1Oc2ncc(C#CC(C)C)cc2C(=O)N([C@@H](C)CO)C[C@H]1C	i	8	7	0.0
C[C@@H]1CCCCO[C@@H](CN(C)C(=O)Cc2ccccc2)[C@H](C)CN([C@H](C)CO)C(=O)c2cc(NS(=O)(=O)c3ccc(F)cc3)ccc2O1	i	-3	-14	1.7
COC(=O)N1C[C@H](OCc2cn(-c3ccc(OC)cc3)nn2)[C@H]2C[C@@H]1c1ccccc1O2	i	-21	-10	-2.6
O=C(C[C@@H]1C[C@@H]2c3cc(NC(=O)Nc4ccc(F)cc4)ccc3O[C@@H]2[C@H](CO)O1)NC1CCCCC1	i	-3	-5	0.5

Further records:
mol	FGF22 binding	Ecoli rRNA inh	Ecoli rRNA inh OD600	Ecoli rRNA inh RFP
C[C@@H]1CCCCO[C@@H](CN(C)C(=O)CCCN(C)C)[C@H](C)CN([C@H](C)CO)C(=O)c2cc(NC(=O)Nc3ccc4c(c3)OCO4)ccc2O1	i	3	7	-0.5
COc1ccc(S(=O)(=O)Nc2ccc3c(c2)C(=O)N([C@@H](C)CO)C[C@H](C)[C@@H](CN(C)C(=O)Nc2ccccc2)OCCCC[C@@H](C)O3)cc1	i	3	-3	8.8
O=S(=O)(c1ccccc1F)N1C[C@@H]2[C@H](c3ccccc31)[C@H](CO)N2Cc1ccc2c(c1)OCO2	i	-4	-33	8.2
OC[C@@H]1Nc2ccc(-c3ccc(F)cc3)cc2[C@@H]2[C@H]1CCN2Cc1ccc(F)cc1	i	-23	-48	26
COC(=O)[C@H](N[C@H](/C=C/c1ccccc1)[C@@H](O)Cc1ccccc1)c1ccccc1	i	5	9	3.4
C[C@@H]1CN([C@@H](C)CO)C(=O)c2cc(NC(=O)Nc3ccc(F)cc3)ccc2O[C@@H](C)CCCCO[C@H]1CN(C)Cc1ccncc1	i	-1	-7	0.0
CCCNC(=O)N1C[C@@H]2[C@H](c3ccccc31)[C@@H](CO)N2Cc1ccc(F)cc1	i	2	10	0.2
CCCC(=O)Nc1ccc2c(c1)C(=O)N(C)[C@@H]1CC[C@H](CC(=O)NCCOC)O[C@@H]1CO2	i	-2	2	0.1
CO[C@@H]1CN(C)C(=O)c2ccc(NS(=O)(=O)c3ccccc3)cc2OC[C@@H](C)N(C)C[C@@H]1C	i	0	1	0.3
COc1cccc(NC(=O)Nc2ccc3c(c2)C(=O)N(C)[C@@H]2CC[C@@H](CC(=O)O)O[C@H]2CO3)c1	i	4	8	-0.7

(listing goes on)
mol	FGF22 binding	Ecoli rRNA inh	Ecoli rRNA inh OD600	Ecoli rRNA inh RFP
CCCNC(=O)Nc1ccc2c(c1)C(=O)N(C)C[C@@H](OC)[C@H](C)CN(C(=O)C1CC1)[C@@H](C)CO2	i	3	5	-2.1
Nc1ccn([C@@H]2O[C@H](C(=O)N[C@H](Cc3ccccc3)C(=O)N[C@H]3CCCCNC3=O)[C@@H](O)[C@H]2O)c(=O)n1	i	6	14	2.0
CN1CCN(C(=O)C[C@@H]2CC[C@@H]3[C@H](COC[C@H](O)CN3C(=O)Nc3ccc4c(c3)OCO4)O2)CC1	i	3	-4	1.1
CC(C)NC(=O)N(C)C[C@@H]1Oc2ccc(NC(=O)Nc3cccc4ccccc34)cc2CC(=O)N([C@H](C)CO)C[C@@H]1C	i	3	2	1.3
COCc1cc(N2CCNC[C@@H]2C)ccc1N1C[C@@H](C)O[C@@H](C)C1	i	34	24	1.8
C[C@@H]1CCCCO[C@@H](CN(C)C(=O)Nc2ccc3c(c2)OCO3)[C@H](C)CN([C@H](C)CO)C(=O)c2cc(NC(=O)NC3CCCCC3)ccc2O1	i	-1	4	-1.0
Cc1[nH]c2ccccc2c1CC(=O)Nc1ccc(Nc2cccnc2)c(-c2ccc(-c3ccccc3)cc2F)c1	i	10	11	0.0
Cc1noc(C)c1NC(=O)Nc1ccc2c(c1)CC(=O)N([C@H](C)CO)C[C@@H](C)[C@@H](CN(C)Cc1ccc(Oc3ccccc3)cc1)O2	i	-2	-33	0.8
COCCN(Cc1ccc(C)cc1)C(=O)[C@H]1O[C@@H](n2cnc(C(N)=O)n2)[C@H](O)[C@@H]1O	i	29	11	4.6
CN1c2ccc(C3=CCCCC3)cc2[C@H]2[C@H](CCN2C(=O)Cc2ccccn2)[C@@H]1CO	i	6	18	3.2

Continuation.
mol	FGF22 binding	Ecoli rRNA inh	Ecoli rRNA inh OD600	Ecoli rRNA inh RFP
O=C(NCCc1ccccc1Cl)[C@@H]1CCCN1C(=O)[C@@H](NC(=O)N1CCOCC1)c1ccccc1	i	21	16	8.8
CN(C)C(=O)c1ccc(-c2ccc3c(c2)[C@@H]2[C@@H](CCN2C(=O)c2ccccn2)[C@H](CO)N3)cc1	i	3	11	-1.6
CN1C(=O)c2cc(NC(=O)c3cccs3)ccc2OC[C@@H]2O[C@H](CC(=O)NCC3CC3)CC[C@H]21	i	-2	-2	1.8
C[C@H](O)[C@@H]1C(=O)N2CCc3c([nH]c4cccc(-c5ccccc5)c34)[C@@H]2C[C@@H]1N(C)C(=O)Nc1ccccc1	i	-38	-70	7.9
CN(Cc1ccccc1)C(=O)c1cccc(NC(=O)Cc2cccc(NC(=O)C3CCN(C(=O)CCc4ccccc4)CC3)c2)c1	i	-12	-9	-1.8
Cc1noc(C)c1NC(=O)N(C)C[C@@H]1OCCCC[C@H](C)Oc2ccc(NS(=O)(=O)c3cn(C)cn3)cc2C(=O)N([C@H](C)CO)C[C@@H]1C	i	3	16	-1.7
Cc1ccc(S(=O)(=O)Nc2ccc3c(c2)CC(=O)N([C@H](C)CO)C[C@H](C)[C@@H](CN(C)S(=O)(=O)c2ccc(Cl)cc2)O3)cc1	i	-4	-3	2.5
O=C(N[C@H](C(=O)N1CCC[C@H]1C(=O)NC1CCCC1)C1CCCCC1)c1nccs1	i	0	3	5.3
COc1cccc(-c2ccc(C3[C@@H]4CN(C(=O)C5CCOCC5)C[C@H]3N4)cc2)c1 (stereo partly specified)	i	-2&4	2&5	-3.3&0.4
Cc1ccc(S(=O)(=O)Nc2ccc3c(c2)C(=O)N([C@H](C)CO)C[C@@H](C)[C@H](CN(C)S(=O)(=O)c2ccc(Cl)cc2)OCCCC[C@@H](C)O3)cc1	i	-1	7	3.2

(more compounds)
mol	FGF22 binding	Ecoli rRNA inh	Ecoli rRNA inh OD600	Ecoli rRNA inh RFP
COC(=O)C1=C(C)N(Cc2ccccc2C(F)(F)F)C(=NCc2cccc(C(F)(F)F)c2)NC1c1ccc(C(F)(F)F)cc1 (stereo unspecified)	i	-18	-2	11
COCC(=O)Nc1ccc2c(c1)C(=O)N(C)[C@H]1CC[C@@H](CC(=O)NC3CCCC3)O[C@H]1CO2	i	0	4	0.2
CN1CCN(C(=O)C[C@H]2C[C@@H]3c4cc(NC(=O)Nc5ccccc5)ccc4O[C@@H]3[C@H](CO)O2)CC1	i	3	3	-1.9
C[C@H]1CCCCO[C@H](CN(C)CC2CCCCC2)[C@@H](C)CN([C@@H](C)CO)C(=O)c2cc(NC(=O)NC3CCCCC3)ccc2O1	i	1	-30	32
COc1cccc(NC(=O)N2C[C@@H](O)COC[C@@H]3O[C@@H](CC(=O)NCCCN4CCOCC4)CC[C@H]32)c1	i	3	6	-1.4
C[C@H]1CCCCO[C@H](CN(C)S(=O)(=O)c2cccs2)[C@@H](C)CN([C@@H](C)CO)C(=O)c2cc(NC(=O)Nc3cccc4ccccc34)ccc2O1	i	0	8	-1.1
O=C(C[C@H]1CC[C@@H]2NC[C@@H](O)COC[C@H]2O1)N1CCc2ccccc2C1	i	4	-7	-4.5
COc1ccc(CN(C)C[C@@H]2OCCCC[C@@H](C)Oc3ccc(NC(=O)Nc4ccccc4)cc3C(=O)N([C@@H](C)CO)C[C@H]2C)cc1	i	5	-4	-2.4
COCCCNC(=O)[C@H]1O[C@@H](n2cnc3c(=O)[nH]c(N)nc32)[C@H](O)[C@@H]1O	i	20	7	6.2
COc1ccc(S(=O)(=O)N(C)C[C@H]2OCCCC[C@@H](C)Oc3ccc(NC(=O)Nc4ccccc4)cc3C(=O)N([C@H](C)CO)C[C@@H]2C)cc1	i	-1	6	-3.0

(next part)
mol	FGF22 binding	Ecoli rRNA inh	Ecoli rRNA inh OD600	Ecoli rRNA inh RFP
C[C@@H]1CCCCO[C@H](CN(C)S(=O)(=O)c2ccc(Cl)cc2)[C@@H](C)CN([C@H](C)CO)C(=O)c2cc(NS(=O)(=O)c3ccc(Cl)cc3)ccc2O1	i	3	-1	-0.8
Cc1noc(C)c1NC(=O)Nc1ccc2c(c1)C(=O)N(C)[C@H]1CC[C@H](CC(=O)Nc3ccccc3F)O[C@@H]1CO2	i	0	6	-2.1
CN1CCN(C(=O)C[C@H]2C[C@H]3c4cc(NS(=O)(=O)c5ccc(F)cc5)ccc4O[C@H]3[C@H](CO)O2)CC1	i	-2	-1	-1.8
COCC(=O)Nc1ccc2c(c1)C(=O)N(C)[C@@H]1CC[C@H](CC(=O)NCc3ccc(OC)cc3)O[C@H]1CO2	i	-3	-1	-0.3

Record cards, from the list above. Order of values: FGF22 binding	Ecoli rRNA inh	Ecoli rRNA inh OD600	Ecoli rRNA inh RFP
`CCCNC(=O)N(C)C[C@H]1Oc2ncc(C#CC(C)C)cc2C(=O)N([C@@H](C)CO)C[C@H]1C` as listed: i	8	7	0.0
`CN1C(=O)c2cc(NC(=O)c3cccs3)ccc2OC[C@@H]2O[C@H](CC(=O)NCC3CC3)CC[C@H]21` as listed: i	-2	-2	1.8
`C[C@@H]1CN([C@@H](C)CO)C(=O)c2cc(NC(=O)Nc3ccc(F)cc3)ccc2O[C@@H](C)CCCCO[C@H]1CN(C)Cc1ccncc1` as listed: i	-1	-7	0.0
`COc1ccc(S(=O)(=O)N(C)C[C@H]2OCCCC[C@@H](C)Oc3ccc(NC(=O)Nc4ccccc4)cc3C(=O)N([C@H](C)CO)C[C@@H]2C)cc1` as listed: i	-1	6	-3.0

High-throughput results as filed in PubChem BioAssay.
